# Rango complex inh – Rango-importin beta binding inhibition | 340,000 tested, 0.031% active | AID 540263 | Rango CFP/YFP FRET sensor + importin beta, 45 min | Q14974 | Potency, µM (top dose mostly 92.2 µM), without a hit: top-dose inhibition of complex formation; active = rising FRET ratio curve, often small or poorly fitted; inconclusive = mostly compound fluorescence or quenching in the first reads; inactive = flat curves in all reads;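 note: potency is the fitted concentration of half-maximal effect; 0% = DMSO wells and 100% = buffer wells lacking importin beta; nearly all actives have a fitted effect of over 15% in size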
# Target sequence (Q14974 whole entry, looked up): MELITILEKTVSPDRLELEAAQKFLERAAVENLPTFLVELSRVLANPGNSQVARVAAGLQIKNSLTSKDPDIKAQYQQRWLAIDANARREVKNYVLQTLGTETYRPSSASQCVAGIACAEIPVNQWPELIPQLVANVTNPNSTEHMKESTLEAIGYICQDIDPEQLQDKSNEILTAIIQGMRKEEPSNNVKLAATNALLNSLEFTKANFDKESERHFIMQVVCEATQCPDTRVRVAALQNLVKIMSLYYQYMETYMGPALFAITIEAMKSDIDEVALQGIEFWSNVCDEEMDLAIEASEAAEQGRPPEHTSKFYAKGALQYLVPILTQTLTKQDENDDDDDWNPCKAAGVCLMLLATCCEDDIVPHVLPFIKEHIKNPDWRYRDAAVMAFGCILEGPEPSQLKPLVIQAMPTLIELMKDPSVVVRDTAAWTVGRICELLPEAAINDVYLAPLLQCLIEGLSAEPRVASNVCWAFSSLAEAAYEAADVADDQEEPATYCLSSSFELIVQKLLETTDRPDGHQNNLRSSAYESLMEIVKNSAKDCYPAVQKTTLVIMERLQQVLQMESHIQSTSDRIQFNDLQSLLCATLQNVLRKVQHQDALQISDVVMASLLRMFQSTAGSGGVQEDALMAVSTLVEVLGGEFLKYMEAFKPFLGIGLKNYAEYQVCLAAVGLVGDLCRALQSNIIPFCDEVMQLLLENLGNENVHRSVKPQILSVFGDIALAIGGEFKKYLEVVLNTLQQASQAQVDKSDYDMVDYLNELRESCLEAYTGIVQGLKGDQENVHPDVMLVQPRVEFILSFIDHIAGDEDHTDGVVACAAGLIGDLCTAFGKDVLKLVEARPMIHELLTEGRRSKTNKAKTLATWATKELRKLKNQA
#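 FRET biosensor (snurportin 1 IBB flanked by EYFP and cerulean), 50 nM, with compound 5 min, then 0.125 microM importin beta in PBS, 1 mM DTT, 0.02% Tween-20, 0.1% BSA. CFP/YFP ratio read after 45 min at room temperature; pre-read flags interference.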
# Rango dissoc inh – prevents RanGTP from dissociating the Rango-importin beta complex; O95149+P62826; Biochemical FRET Rango-importin beta, RanGTP-induced dissociation; 340,000 tested, 0.071% active; Potency, µM (top dose mostly 46.1 µM), for inactives: at the top dose activity change, negative = inhibition; active means falling FRET ratio curve, often poorly fitted, with flat reads before Ran was added; inconclusive means other falling curves, or compound fluorescence or quenching; inactive means flat or rising ratio curve;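 note: potency is the fitted concentration of half-maximal effect; % of control where 0% means no effect; nearly all actives have a fitted effect of over 45% in size; -100% = wells without RanGTP and RCC1; the record marks most hits as doubtful in a second field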
#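 Quantitative HTS using a FRET biosensor: 0.1 uM Rango, 0.25 uM importin beta, 0.6 uM Ran, 2 mM GTP, 0.2 uM RCC1 final, PBS with DTT, Tween-20 and BSA. Post-read taken 45 min after Ran addition.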
# GLA inh pH 4.5 – inhibitors of human alpha-galactosidase A at pH 4.5; activity change, negative = inhibition, % at 105 µM; purified enzyme, 4-MU-alpha-Gal fluorescence, pH 4.5; P06280; AID 1467; 230,000 tested, under 10 active; inconclusive = small, poorly fitted or top-dose-only inhibition, or a rising curve; inactive = flat fitted curve, though single readings scatter; no compound was filed as active;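 note: 0% = full activity with enzyme and -100% = basal without enzyme; dose as in the result columns while the protocol names 77 µM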
# miR-21 reporter – raises the signal of a miR-21 reporter; 340,000 tested, under 10 active; HeLa miR-21 FLuc reporter, luciferase, 48 h; Potency, µM (series often up to 38.3 µM), without a hit: at the highest dose reporter change, positive = more light; active = well fitted rising curve with a large enough effect; inconclusive = small, poorly fitted or top-dose-only effect; inactive = no such curve, though single readings can be large or run the other way;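 note: % of control where 0% means no effect; miR-21 action dims this reporter so a rising signal means less miR-21 action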
#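 HeLa cells stably expressing CMV-driven firefly luciferase with a downstream miR-21 binding sequence, endogenously expressing miR-21, were treated with titrations (up to about 40uM final) for 48 hours at 37 degree Celsius. Luciferase luminescence was read after lysis.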
# Starred values were filed as active, the others as inactive; ? = inconclusive; . = not tested or not shown; & = joins results of further samples.
SMILES,Rango complex inh,Rango dissoc inh,GLA inh pH 4.5,miR-21 reporter
COC(=O)CSc1ncccc1-c1nc2ccccc2[nH]1,?,3%,3,-22%
CCn1c(SCC(=O)Nc2ccc(S(N)(=O)=O)cc2)nnc1-c1cccc(OC)c1,-1.1%,1%,5,0%
COCCN(C(=O)CSc1nc2ccccc2s1)c1c(N)n(Cc2ccccc2)c(=O)[nH]c1=O,?,?,.,.
COc1ccc(CN2CCc3ccccc3C2)c(OC)c1,7.4%,4%,2,-1%
CC1CCCC(NC(=O)c2ccc3c(c2)OCO3)C1C (configuration not stated),2.2%,-10%,.,.
Cc1cc(=O)oc2cc(NC(=O)C(C)Oc3ccc(F)cc3)ccc12 (configuration not stated),-0.5%,-4%,.,.
O=C(COc1ccccc1Cl)NC1CC1,-1.8%,-4%,.,-19%
COc1ccc(N2CCN(C(=O)c3ccccc3F)CC2)c([N+](=O)[O-])c1,1.5%,-7%,-3,4%
CCCCc1c(O)nc(SCC(=O)c2ccccc2)n(-c2ccccc2C)c1=O,-1.3%,-4%,1,-6%
CC1(C)C(=O)NCCN1C(=O)c1ccc2nc(Cc3ccccc3F)oc2c1,4.3%,-10%,.,10%
O=C(Nc1ccc(Cl)c(Cl)c1)Nc1nc(-c2ccccc2)cs1,3.1%,-4%,4,-10%
Cc1nc2ncnn2c(N2CCN(C(=O)c3cccc(F)c3)CC2)c1Cc1ccccc1,3.5%,11%,-9,-11%
COc1ccc2oc(=Nc3ccc(C(=O)O)cc3)c(C(=O)NCc3ccco3)cc2c1,-1.7%,9%,2,0%
CCC(CC)NC(=O)Nc1cccc(C)c1C,1.7%,-15%,-9,-1%
O=C(NCCc1ccccc1F)C1CC(O)CN1C(=O)Nc1ccccc1 (configuration not stated),-2.6%,-4%,.,-4%
O=C1c2ccccc2C(=O)N1CCCCN(C(=O)c1ccc(Cl)s1)c1ccc(Cl)cc1,-0.2%,-2%,0,-1%
Cc1noc(C)c1NC(=O)N(C)C[C@H]1Oc2c(NC(=O)Nc3ccc4c(c3)OCO4)cccc2C(=O)N([C@H](C)CO)C[C@@H]1C,-2.9%,-6%,.,.
CC(O)CNCCOc1ccccc1-c1ccccc1 (configuration not stated),-2.7%,7%,4,-7%
COc1ccccc1N1CCN(C2CCCN(C(=O)CCc3cnn(C)c3)C2)CC1 (configuration not stated),-2.8%,1%,.,0%
COc1ccccc1N1CCN(CC(=O)N2CCCC2)CC1,3.6%,9%,7,4%

# Part of the list above with just Rango complex inh.
SMILES | Rango complex inh
CC1CCCC(NC(=O)c2ccc3c(c2)OCO3)C1C (configuration not stated) | 2.2%
Cc1cc(=O)oc2cc(NC(=O)C(C)Oc3ccc(F)cc3)ccc12 (configuration not stated) | -0.5%
O=C(COc1ccccc1Cl)NC1CC1 | -1.8%

# Further records
SMILES,Rango complex inh,Rango dissoc inh,GLA inh pH 4.5,miR-21 reporter
NS(=O)(=O)c1ccc(NNC(=O)c2ccccc2)cc1,-4.0%,-4%,-3,1%
COc1ccc(Nc2nc(NCc3ccco3)nc(N3CCOCC3)n2)cc1,-2.6%,26%,2,-8%
CCCn1c(N)c(N(CCOC)C(=O)COC(=O)CSc2cc(C)c3ccccc3n2)c(=O)[nH]c1=O,-2.0%,1%,.,.
Cc1ccc(C2=NN(CCC#N)C(=O)CO2)cc1,-4.4%,9%,.,-3%
CCCCN(C(=O)c1cc2ccccc2o1)c1c(N)n(CC(C)C)c(=O)[nH]c1=O,-2.9%,26%,8,-2%
CN(C)C(=O)CCc1ccc2c3c([nH]c2c1)[C@]1(CCc2ccccc2)[C@@H](C(=O)N2CCCCC2)C[C@H](CC(=O)NCc2cccc(C(F)(F)F)c2)C(=O)N1CC3,3.5%,10%,.,.
CCOC(=O)CSc1nc2c(c(=O)[nH]c(=O)n2C)n1Cc1ccccc1,4.3%,-3%,.,-2%
O=C(NN=C1CCCC1)c1ccccc1[N+](=O)[O-],-1.8%,-12%,.,2%
Cc1ccc(S(=O)(=O)N2CCCCC2)cc1NC(=O)CNc1ccccc1N1CCCC1=O,0.0%,-1%,.,.
O=C(Cn1c(=O)sc2ccccc21)Nc1nc2c(s1)CCCC2,5.0%,-23%,4,11%
O=C(NC(=O)N1CCN(c2ccc([N+](=O)[O-])cn2)CC1)c1ccccc1F,0.3%,-23%,-3,-7%
CCN(CC)S(=O)(=O)c1ccc(N2CCOCC2)c(NS(=O)(=O)c2ccc(C)c(C)c2)c1,-2.3%,15%,11,-6%
O=C(NCCCN1CCCC1=O)c1ccc([N+](=O)[O-])s1,6.2%,-20%,.,.
C=CCN1C(=O)C(C)(C)N(C(C)=O)c2ccccc21,5.6%,-7%,-2,-6%
Cc1cc(C)c(S(=O)(=O)c2ccc(C(C)(C)C)cc2)c(Cl)n1,0.5%,0%,.,-2%
O=C(CN1CCCC1)Nc1ccc(F)cc1,-1.1%,-1%,6,-3%
Cc1cc(C)cc(NC(=O)CN2C(=O)C3CC=CCC3C2=O)c1 (configuration not stated),0.9%,?,.,.
O=C(O)c1cn(Cc2ccccn2)c(=O)c2ccccc12,-5.3%,-5%,5,3%
Cc1cc(N2CCOCC2)ccc1/C=C1/SC(=O)NC1=O,?,?,-5,-84%
Cc1ccc(NC(=O)COCC(=O)Nc2ccc(F)cc2)cc1,0.0%,-13%,.,-10%
CCCC(C)C(=O)Nc1ccc(S(=O)(=O)Nc2nccs2)cc1 (configuration not stated),5.1%,-10%,-1,5%
Cc1cccc(NC(=S)N(CCN(C)C)C(C)c2ccco2)c1 (configuration not stated),-1.9%,16%,3,-9%
O=C1[C@H]2[C@@H](C3CC3)N3C(=O)CN(Cc4ccccn4)C(=O)[C@@]3(Cc3ccccc3)[C@H]2C(=O)N1c1ccccc1,0.6%,3%,.,2%
O=C(NCC1CCCCC1)c1cccc(Br)c1,-0.7%,0%,.,0%
CCOc1ccc([C@@H]2CC=C(C(=O)O)[C@H](c3cccc(Cl)c3)N2S(=O)(=O)c2ccc(C)cc2)cc1,5.8%,-6%,.,.
Cc1nn(-c2cccc(C(=O)O)c2)c(C)c1Oc1ccccc1O,-5.2%,0%,0,-4%
Cc1ccc(-c2cc(C(=O)NC3=NCCS3)c3ccccc3n2)cc1C,0.9%,1%,-3,-44%
COc1cccc(C(=O)Nc2cc(C)on2)c1OC,-11%,12%,1,-34%
S=c1[nH]nc(-c2ccco2)n1/N=C/c1ccccc1Cl,7.0%,-13%,2,-8%
COc1cc2nc(CN(C)Cc3ccc(F)cc3)[nH]c(=O)c2cc1OC,0.7%,10%,4,6%
Cc1cc(C(=O)COC(=O)C2=COCCO2)c(C)n1-c1ccc2c(c1)OCO2,2.5%,-4%,-8,-38%
CC(C)OCCCNc1nc2c(c(=O)n(Cc3ccccc3F)c(=O)n2C)n1C,0.0%,-1%,-8,0%
Cc1ccc2cccc(NC3OC(=O)c4ccccc43)c2n1 (configuration not stated),-3.5%,18%,-4,2%
Cc1ccc(NC(=O)CC(C)N2CCCC2)cc1 (configuration not stated),-2.8%,-11%,-6,-9%
CC(=O)N1c2ccc(S(=O)(=O)NC(CC(=O)O)c3ccc(Br)cc3)cc2CC1C (configuration not stated),1.1%,6%,.,-5%
Cc1ccc(NC(=S)NNC(=O)c2c(Cl)c(C)nn2C)cc1,2.2%,-2%,-5,-10%
COc1ccc(CCN(C)Cc2ccc(OC)c(OCc3ccccc3)c2)cc1OC,-2.5%,-14%,-11,-8%
Cc1ccsc1/C=N/NC(=O)Cn1cnc2ccccc21,-0.5%,-20%,5,-14%
O=C(O)/C=C/C(=O)NC1CCCCCCCCCCC1,4.5%,5%,3,-8%
Cc1ccc(-n2nnc3c(=O)n(CC(=O)NCc4ccccc4)cnc32)cc1,-0.6%,12%,-1,-3%
Cc1oc(-c2ccccc2F)nc1CS(=O)CC(=O)NCc1ccc2c(c1)OCO2 (configuration not stated),-3.4%,-3%,-17,0%
Cn1cnnc1SCCCN1C(=O)c2cccc3cccc(c23)C1=O,2.0%,-18%,2,-32%
COc1ccc(NC(=O)c2ccco2)cc1NC(=O)c1c(OC)cccc1OC,-4.7%,4%,.,-15%&-22%
O=C(O)CC1(CC(=O)Nc2ccc(Oc3cccc(C(F)(F)F)c3)nc2)CCCC1,1.7%,29%,-12,1%
CS(=O)(=O)N(CC(=O)NCc1cccnc1)C1CCCCC1,0.4%,-8%,-20,0%
CCOc1ccc(-c2cccc(NS(=O)(=O)c3ccc([N+](=O)[O-])cc3)c2)nn1,0.5%,-4%,.,.
Cc1ccc(CN2CCNC(=O)C2CC(=O)NCc2cc(C)n(C)n2)cc1 (configuration not stated),?,-14%,.,-2%
CC(=O)c1c(C)[nH]c(C(=O)COC(=O)c2nccnc2N)c1C,1.2%,16%,.,.
Cn1c(SCc2ccccc2)nccc1=O,-1.3%,12%,.,.
Cc1cccc(/C=N/NC(=O)CC(=O)NCCc2ccccc2)c1,0.9%,-4%,.,.
# Later entries.
SMILES,Rango complex inh,Rango dissoc inh,GLA inh pH 4.5,miR-21 reporter
O=C1c2cccnc2C(=O)N1c1ccccc1-c1ccccc1,-0.3%,-16%,-2,1%
COc1ccc(OCC(=O)N/N=C2/C=C(C)CC2)cc1,-0.1%,-10%,7,-2%
NCCCCCNC(=O)c1[nH]cnc1C(=O)N[C@@H](Cc1ccccc1)C(=O)OCc1ccccc1,5.9%,-3%,.,.
CC(=O)c1ccc(S(=O)(=O)NCCC(=O)OCC(=O)N(Cc2ccccc2)C(C)(C)C)cc1,4.6%,5%,.,.
COc1cc(/C=N\NC(=O)c2ccc(-c3ccccc3)cc2)cc(Br)c1O,?,3%,.,-9%
O=c1[nH][nH]c(-c2ccccc2)c1C=Nc1ccccc1Cl,0.4%,-6%,-8,-8%
N#Cc1c(-c2cccnc2)c2c([nH]c1=S)CCCC2,-1.2%,4%,-2,-2%
CS(=O)(=O)c1ccc(-n2c(=O)n(Cc3ccccc3)c(=O)c3[nH]cnc32)cc1,0.6%,0%,.,1%
Cc1cccc(NS(=O)(=O)c2cccs2)c1,0.1%,-6%,8,-4%
COC(=O)c1cc(OC)c(OC)cc1NC(=O)CC1CCCCC1,-0.8%,22%,0,-4%
Cc1ccc(NC(=O)CSc2nc(=O)n(CCN3CCOCC3)c3c2CCCC3)cc1,1.5%,-8%,.,.
Cc1cccc(NC(=S)Nc2cccc3ccccc23)c1,-2.2%,1%,.,-28%
O=C(NCCNc1ccc2ccccc2c1)c1cccn2c(=O)c3sccc3nc12,.,.,-28,0%
CCc1nnc(NC(=O)c2cc(S(=O)(=O)N(CC)CC)ccc2Cl)s1,-0.4%,1%,5,0%
CC[C@]1(C(=O)OC)[C@H]2C(=O)N(Cc3ccccc3)C(=O)[C@H]2[C@H]2CN=C(SCC3CC3)N21,-0.1%,6%,.,.
CC(=O)c1ccc(OCCCC(=O)NCCc2ccccc2)cc1,1.5%,15%,.,-25%
CSc1nccc(-c2nn(-c3ccc(C)cc3)ccc2=O)n1,0.2%,-5%,-4,19%
Nc1c(Cl)cc(Cl)cc1C(=O)OCC(=O)N1CCOCC1,0.4%,-8%,?,-7%
CCOc1c2ccc(C(=O)N[C@H](C)C3CCCCC3)cc2nn1CC,5.7%,-1%,14,-3%
Cc1ccc(Cn2cc(CCC(=O)O)c3ccccc32)cc1,-1.8%,-10%,.,0%
CC(=O)N1CCN(C(=O)c2cc(-c3ccc(C)o3)nc3ccccc23)CC1,-1.1%,0%,.,.
NC(=O)CC1C(=O)N(c2ccc(Cl)cc2)C(=S)N1NC(=O)c1cccc(F)c1 (configuration not stated),12%,-8%,.,-12%
COC(=O)c1ccc(N2C(=O)CC(Sc3n[nH]c(C)n3)C2=O)cc1 (configuration not stated),1.3%,6%,7,-1%
Cc1ccc(NS(=O)(=O)c2ccccc2[N+](=O)[O-])cc1S(=O)(=O)N1CCCCC1,-2.4%,-12%,.,.
CCc1ccc(C)c(OC(=O)c2cncc(Br)c2)c1,3.0%,16%,.,1%
CCN(CC)CCn1c2c(c(SCC(=O)Nc3ccc(F)c(F)c3)nc1=O)CCC2,0.4%,3%,.,.

# Source: PubChem BioAssay (National Center for Advancing Translational Sciences (NCATS))

# Some of the compounds tested; the hit share may differ from the screen's.
